# ClpP mod: qHTS Assay for Activators of ClpP; Potency, µM (titrated, usually from 57.5 µM), inactives show at the highest dose activity change, negative = active; AID 651965, 2013; 340,000 compounds, 1.9% hits; purified B. subtilis ClpP, FRET peptide cleavage, 20 min; active = well fitted falling curve with a large enough effect; inconclusive = small, poorly fitted or top-dose-only effect; inactive = no such curve, though single readings can be large or run the other way; also: potency is read from the fitted curve at half-maximal effect; the source files actives as falling curves though it sought activators and does not explain the sign; nearly all actives have a fitted effect of over 65% in size; many hits overshoot -100%
# Target sequence (P80244 whole entry, looked up): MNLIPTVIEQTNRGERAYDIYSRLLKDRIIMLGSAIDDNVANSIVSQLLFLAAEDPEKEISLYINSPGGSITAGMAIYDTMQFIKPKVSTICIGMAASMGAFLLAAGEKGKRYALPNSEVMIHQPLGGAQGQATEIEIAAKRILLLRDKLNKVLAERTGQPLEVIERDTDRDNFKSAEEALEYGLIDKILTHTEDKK
#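 ClpP 10 microg/mL final, pH 8 Tris/KCl buffer with BSA, glycerol, Tween-20; compound pinned in; FRET-FV substrate; RT 20 min; Ex320/Em430; ΔFRET vs ADEP 5.8 microM, DMSO, no enzyme.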
# TRPML1 inh: qHTS for Inhibitors of the Human Mucolipin Transient Receptor Potential 1 (TRPML1). 390,000 compounds, 0.02% hits. AID 624415, 2012. TRPML1-inducible cells, Ca2+ dye fluorescence, FDSS; hits give low values; inhibition of EC80 agonist-evoked calcium signal. Mucolipin-1 (Homo sapiens), Q9GZU1. activity change, negative = inhibition, % (no concentration beside the values); in the data active means activity change below about -50%; inconclusive means about -30% to -50%; inactive means above about -30%;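 also: stimulus is agonist 54-4 at its EC80 concentration; % is scaled to controls: 0 for no effect and ±100 for the full control effect; compound concentration not given in the record; the text of the record puts the active cut at -80%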
#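 Tet-induced TRPML1-DL cells loaded with Ca8 no-wash calcium dye were read kinetically on FDSS. Compound addition was followed by EC80 agonist 54-4 (4 uM final); inhibition was read over 110 s.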
# TRPV1 PAM: HTS Assay for Compounds that Act as Potentiators of the Vanilloid Receptor 1; Transient receptor potential cation channel subfamily V member 1 (Homo sapiens), Q8NER1; TRPV1-expressing cells, Fluo-8 calcium influx, capsaicin EC20 potentiation; host cell line not named in the record; control for the full effect not named in the record; potentiation, % at 8.33 µM; 320,000 compounds, 0.02% hits; AID 540277, 2011; active means potentiation above 80%; inconclusive means 30% to 80%; inactive means below 30%; also: 0% is about no effect
# Target sequence (Q8NER1 whole entry, looked up): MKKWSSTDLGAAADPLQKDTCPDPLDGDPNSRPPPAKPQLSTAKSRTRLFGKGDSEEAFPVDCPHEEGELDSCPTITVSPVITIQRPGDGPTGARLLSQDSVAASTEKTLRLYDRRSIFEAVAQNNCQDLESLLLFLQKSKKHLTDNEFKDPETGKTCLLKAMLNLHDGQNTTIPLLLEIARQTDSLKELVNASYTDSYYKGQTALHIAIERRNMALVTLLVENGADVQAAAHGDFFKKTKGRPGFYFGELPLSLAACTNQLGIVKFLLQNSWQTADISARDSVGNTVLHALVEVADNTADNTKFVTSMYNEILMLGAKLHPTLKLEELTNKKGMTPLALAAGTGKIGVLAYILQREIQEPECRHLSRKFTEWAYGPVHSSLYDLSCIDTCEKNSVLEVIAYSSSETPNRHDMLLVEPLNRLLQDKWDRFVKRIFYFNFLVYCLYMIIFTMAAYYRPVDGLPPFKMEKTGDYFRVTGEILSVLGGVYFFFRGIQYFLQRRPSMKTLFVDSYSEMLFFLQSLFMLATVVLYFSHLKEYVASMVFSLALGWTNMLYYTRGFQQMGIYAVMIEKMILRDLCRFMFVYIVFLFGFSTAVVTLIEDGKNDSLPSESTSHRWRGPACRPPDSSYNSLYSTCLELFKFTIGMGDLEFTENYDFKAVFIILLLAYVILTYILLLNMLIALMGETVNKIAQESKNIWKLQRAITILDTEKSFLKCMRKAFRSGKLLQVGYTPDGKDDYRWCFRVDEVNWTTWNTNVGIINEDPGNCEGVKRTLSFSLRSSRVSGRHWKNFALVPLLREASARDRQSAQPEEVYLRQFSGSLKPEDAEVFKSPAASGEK
#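 Cells expressing TRPV1 were dye-loaded with Fluo-8 and read kinetically: 10 s baseline, 3 min after compound (agonist portion), then 2 min after EC20 capsaicin (allosteric enhancer portion). Calcium-bound dye fluorescence at 480/520 nm.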
# gsp antagonist: qHTS for Antagonists of gsp, the Etiologic Mutation Responsible for Fibrous Dysplasia/McCune-Albright Syndrome: qHTS; gsp-mutant cells, cAMP HTRF, 30 min; control for the full effect not named in the record; 340,000 compounds, 0.4% hits; Potency, µM (series often up to 76.9 µM), for inactives: at the top dose activity change, negative = inhibition, actives largely listed as inhibitors; active = falling curve of any shape with a large fitted effect; inconclusive = falling curve, mostly with a smaller effect; inactive = flat or rising curve; cell line not stated here;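 also: intracellular cAMP measured with PDE inhibitor Ro 20-1724 present during compound exposure; potency is read from the fitted curve at half-maximal effect; % is scaled to controls: 0 for no effect and ±100 for the full control effect; nearly all actives have a fitted effect of over 65% in size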
#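 Cells, 2000/well, grown 16–24 h in DMEM 10% FBS with 0.5 mg/ml G418, then compounds plus […] (300 uM addition stock), 30 min at 37C. cAMP read by HTRF (cAMP-d2 and anti-cAMP antibody-K in lysis buffer) after 30 min RT.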
# Sfp PPTase inh: qHTS Assay for Inhibitors of Bacillus subtilis Sfp phosphopantetheinyl transferase (PPTase) | 4'-phosphopantetheinyl transferase ffp (Bacillus subtilis), Q9F4F7 | Biochemical Sfp PPTase activity, qHTS | Potency, µM, for inactives: max response, negative = inhibition, most hits filed as inhibitors | 310,000 compounds, 3.5% hits | AID 1490, 2009; active = well fitted inhibition curve with a large enough effect; inconclusive = small, poorly fitted or top-dose-only effect, or another doubt; inactive = no such curve, though single readings can be large or run the other way;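 also: the enzyme is Sfp with the accession as filed and its product quenches rhodamine fluorescence; potency is read from the fitted curve at half-maximal effect; 0% = enzyme reaction without inhibitor and -100% = no enzyme wells; top concentration of the series not given in the record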
#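 After 15 min at room temperature with compound, 15 nM Sfp received 5 uM rhodamine-CoA plus 12.5 uM BHQ-2-ybbR (50 mM Hepes pH 7.6, 10 mM MgCl2). Rate came from the fluorescence difference over 30 min, ex 525/em 598 nm.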
# Menin MLL FP FL: qHTS Assay for Inhibitors Targeting the Menin-MLL Interaction in MLL Related Leukemias: Competition With Fluorescein Labeled MLL-derived Peptide. Fluorescence polarization, fluorescein-MLL peptide displacement from menin. FP activity change, % at 61.4 µM. 290,000 tested, under 10 active; inconclusive = falling polarisation curve, or a change in total fluorescence; inactive = total fluorescence flat and polarisation flat or rising; no compound was filed as active; the % refers to the polarisation; negative = inhibition;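 also: % of control where 0% means no effect; inhibitors lower the polarisation; unlabelled MLL peptide was the positive control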
# gsp ag: qHTS for Agonist of gsp, the Etiologic Mutation Responsible for Fibrous Dysplasia/McCune-Albright Syndrome: qHTS | Potency, µM (doses to about 76.9 µM), for the others: at the highest dose activation (cAMP increase), hits mostly activators | 340,000 compounds, 0.13% hits | AID 624287, 2012 | gsp mutant cells, cAMP HTRF, 30 min; control for the full effect not named in the record; active = well fitted activation curve with a large enough effect; inconclusive = small, poorly fitted or top-dose-only effect, or another doubt; inactive = no such curve, though single readings can be large or run the other way; cell line not stated here;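 also: phosphodiesterase inhibitor Ro 20-1724 added with compounds to block cAMP breakdown; potency is read from the fitted curve at half-maximal effect; nearly all actives have a fitted effect of over 60% in size; about a fifth of the inactives were tested at one dose only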
#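 Cells stably selected in G418 were plated at 2000/well, grown 16-24 hr, then given compounds in DMSO with the PDE inhibitor […] (300 uM solution added) for 30 min at 37C; cAMP was read by HTRF.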
# The depositor's hits bear a star; ? = inconclusive; nt = not tested or not shown; & = joins results of further samples; [ ] = dose if it differs, or a comment.
SMILES,ClpP mod,TRPML1 inh,TRPV1 PAM,gsp antagonist,Sfp PPTase inh,Menin MLL FP FL,gsp ag
COc1ccc(-c2oc3ccc(N4CCOCC4)cc3c2/C=C/c2ccc(OC)c(OC)c2)cc1,4.5%,5,5,-4%,-23%,0.9,nt
O=C(CNC(=O)c1cccs1)OCc1c(F)cccc1Cl,nt,-17,-21,5%,?,3.2,8%[15.4 µM]
COc1ccc(S(=O)(=O)N(C)CC(=O)Nc2cccc(C(C)=O)c2)cc1,1.3%,-6,-2,-6%,18%,-0.2,16%
O=C(O)CCNS(=O)(=O)c1ccc2ccccc2c1,-4.8%,-25,17,5%,-1%,0.0,-11%
OC(c1ccccc1)c1nc2ccccc2s1 (stereo not given),-1.5%,-3,3,6%,-3%,4.2,13%
Cc1ccc(S(=O)(=O)N2CCCCC2)cc1,0.7%,13,-7,1%,10%,0.4,-21%
COc1ccc(-n2ncc3c(=O)n(CC(=O)OCc4ccccc4)cnc32)cc1,-15%,-9,-7,16%,10%,-1.0,17%
CCCCN=C1NN=C(c2ccc3c(c2)OCCO3)CS1,nt,-2,?,-4%,40µM*,6.4,3%
COc1ccc(CC(=O)Nc2nnc(SCc3ccccc3)s2)cc1S(=O)(=O)N1CCOCC1,-3.0%,22,7,-4%,2%,4.6,-35%
Cc1ccc(C(=O)Nc2nc(-c3ccc(F)cc3)cs2)o1,nt,14,22,-27%,-6%,-1.4,-21%
Cc1cc(C)n2nc(SCC(=O)Nc3c(C)nn(-c4ccccc4)c3C)nc2n1,-4.1%,-25,-17,-2%,-4%,-6.5,0%
COc1ccc(/C=N/NC(=O)c2cccc(Br)c2)cc1COc1ccccn1,nt,9,14,-2%,-3%,6.0,16%[15.4 µM]
COc1ccc(-n2c(=S)[nH]c3cc(C(=O)Nc4cc(OC)c(OC)c(OC)c4)ccc3c2=O)c(OC)c1,3.4%,26,26,-17%,42%[activator],9.6,-1%[15.4 µM]
COc1ccc(NC(=O)C2CC(=O)N=C(N)S2)cc1 (stereo not given),0.4%,6,-7,14%,5%,-0.3,0%[15.4 µM]
Cc1cc(-c2c(C(=O)N3CCOCC3)c(C)nn2-c2cccc(C(F)(F)F)c2)no1,nt,16,nt,-10%,13%,3.4,-23%[15.4 µM]
COc1cc(NC(=O)CN2CCN(c3ccccc3)CC2)c(C)cc1[N+](=O)[O-],-0.6%,6,1,5%,16%,3.0,-25%
CCC1(C)CC(=O)N(c2ccc(C(=O)O)c(O)c2)C1=O (stereo not given),25µM*,0,12,-8%,24%,0.8,7%
CCc1ccc(OCC(=O)O/N=C(\N)c2ccncc2)cc1,-0.1%,7,-7,-5%,-9%,nt,-35%[inhibitor]
CCCn1c(SCC(=O)NC2CCCCC2)nnc1-c1ccncc1,-3.6%,-12,-14,2%,9%,5.0,5%
CC1(C)OC(C)(C)/C(=C/Nc2ccc(O)cc2)C1=O,0.8%,-1,-1,6%,?,nt,1%
C/C(N)=C(/C#N)C(=O)COC(=O)CNS(=O)(=O)c1ccc(F)c(F)c1F,nt,-2,0,-12%,9%,-1.3,-1%
COC(=O)c1ccc(C2C3=C(Nc4nnnn42)c2ccccc2OC3)cc1 (stereo not given),-18%,12,2,0%,4%,3.9,9%[15.4 µM]
COc1ccc(-c2cc3c(=O)n(CC(=O)N4CCN(C)CC4)ncn3n2)cc1,-8.1%,-3,19,8%,-1%,-3.1,-5%
COc1ccccc1N1CCN(C(=O)c2cc3cc(F)ccc3[nH]2)CC1,nt,3,-10,-3%,3%,8.6,-1%
Cc1ccc(C(=O)Nc2c(-c3cccs3)c(=O)c3ccccc3n2C)cc1,-3.1%,-8,9,2%,6%,-0.8,27%
O=C(CSc1nnc2ccccn12)NCCc1ccc(Cl)cc1,nt,-3,8,4%,20%,-0.4,22%[15.4 µM]
COc1ccc(C(NC(=O)c2ccco2)c2ccc(OC)c(OC)c2)cc1OC,1.3%,6,28,3%,4%,1.3,-3%
COc1ccc(-c2csc(NC(=O)C3CC(=O)N(Cc4ccco4)C3)n2)cc1 (stereo not given),nt,3,13,-28%,-4%,-0.2,-14%[15.4 µM]
O=C(Nc1nnc(C2CC2)o1)c1ccc(S(=O)(=O)N2CCCCC2)cc1,0.8%,30,10,-13%,18%,nt,5%
O=C(Nc1ccc(Cl)c(S(=O)(=O)N2CCCC2)c1)c1cc(=O)[nH]c2ccccc12,-3.2%,-13,nt,-2%,nt,nt,16%
CCOc1cc(NC(=O)C(C)C)c(OCC)cc1NC(=O)Nc1ccccc1,1.7%,1,-12,7%,-1%,2.9,-38%
COc1ccc(NC(=O)CSc2ccc(F)cc2)cc1S(=O)(=O)N1CCCCC1,1.5%,-10,3,-32%,-16%,1.6,-8%
Cc1nn(C)c(Oc2ccc(Cl)cc2)c1C(=O)O,-2.1%,28,2,-15%,7%,-1.0,29%
N#CCC(=O)Nc1ccc(C(=O)NNC(=O)c2ccccc2-n2cccc2)cc1,-1.8%,-3,5,8%,nt,nt,?
O=C(CSc1nnnn1Cc1ccccc1)c1ccccc1,-1.8%,8,1,-12%,-21%,1.2,-29%
CSc1ncccc1C(=O)N1CCN(S(=O)(=O)c2ccc3c(c2)OCCO3)CC1,-0.9%,-6,nt,4%,nt,nt,1%
COc1ccc(NC(=O)c2sc3nc(N4CCOCC4)c4c(c3c2N)CC(C)(C)OC4)c(OC)c1,-27%,12,10,-22%,-15%,nt,4%
Cc1ccc(Cc2c(-c3ccc(C)cc3)nc3ccc(Cl)cn23)cc1,?,-15,nt,nt,nt,nt,-2%
CCOC(=O)C(C)Sc1nc(-c2ccc(OC)cc2)nc2c1c(=O)n(C)c(=O)n2C (stereo not given),nt,nt,-13,nt,27%,5.4,nt
Cc1oc(-c2ccc(Cl)cc2)nc1CS(=O)CC(=O)NC1CCCCC1 (stereo not given),-2.0%,10,?,13%,-2%,nt,-25%
CCOC(=O)Cc1ncccc1C(=O)Nc1ccc(Oc2ccccc2)cc1,nt,-6,2,nt,10%,15,-12%[15.4 µM]
CC1CCN(C(=O)CN2C(=O)NC3(CCCCCC3)C2=O)CC1,-5.1%,5,14,2%,nt,nt,11%
CC(C)(C)c1ccc(OCC(=O)N/N=C/c2cc(Br)ccc2OC(=O)c2ccco2)cc1,-9.2%,-3,-9,1%,10%,-2.2,-8%
N=c1c(C(=O)NCCc2ccccc2)cc2c(=O)n3ccccc3nc2n1CCCN1CCOCC1,nt,-7,22,-6%,11%,0.5,14%
OCC[C@@H]1C[C@@H](O)[C@H](O)[C@@]2(Cc3ccccc3CCO2)O1,-0.7%,-8,10,11%,12%,0.1,-15%
CCCN(CC(=O)Nc1ccccc1OC)C(=O)C1CCCC1,1.3%,-8,-2,1%,nt,nt,-46%[inhibitor]
O=C(Nc1ccncc1)C1CC(=O)N(c2ccc(F)cc2)C1 (stereo not given),nt,-5,2,-1%,7%,1.1,9%
CC(C)NC(=O)NC(=O)CSc1nncn1C,1.1%,-4,8,4%,5%,3.5,18%
O=C(CCCSc1nnc(Nc2ccccc2F)s1)N1CCOCC1,nt,0,9,-8%,11%,-0.3,9%
COc1ccc(OC)c(C(=O)COC(=O)C(CCSC)NC(=O)COc2ccccc2)c1 (stereo not given),nt,19,14,-16%,nt,nt,-45%[15.4 µM]
# (further entries)
SMILES,ClpP mod,TRPML1 inh,TRPV1 PAM,gsp antagonist,Sfp PPTase inh,Menin MLL FP FL,gsp ag
CCOc1cc(/C=N/NC(=O)C(C)Sc2ccccn2)ccc1O (stereo not given),-3.2%,5,0,-9%,17%,-1.9,26%
Clc1ccc2c(c1)CCc1cccnc1C2=C1CCNCC1,nt,nt,-10&1,nt,-21%&-9%&-24%&8%,1.8&-2.4&-3.8,nt
O=C(COC(=O)/C=C/c1ccc(S(=O)(=O)N2CCOCC2)cc1)NCc1ccccc1,0.3%,-28,-1,-9%,14%,-1.1,15%[15.4 µM]
O=Cc1c(Nc2cccc(C(F)(F)F)c2)nc2ccccn2c1=O,1.1%,0,8,-6%,11%,1.6,20%[15.4 µM]
Cc1cnc(C2OCCO2)c2cccc([N+](=O)[O-])c12,-0.7%,5,nt,nt,nt,nt,19%
COC(=O)Nc1ccc(S(=O)(=O)N2CCC(C(=O)N(C)C3CCCCC3)CC2)cc1,13µM*,7,2,-11%,8%,-0.3,6%[15.4 µM]
N#CC1=C(N)Nc2nc3ccccc3n2C1c1ccc(F)cc1 (stereo not given),-14%,0,6,7%,-8%,1.4,14%
O=C(O)CNC(=O)c1ccc(Sc2ccccc2)c([N+](=O)[O-])c1,nt,11,-1,-10%,18%,0.0,18%[15.4 µM]
COc1ccc(NC(=O)CN(C)C(=O)c2c(-c3ccccc3Cl)noc2C)cc1,-0.8%,7,-11,-8%,nt,nt,-4%
COc1cc(C(=O)NCCCN2CCCC2=O)cc(Br)c1OCc1ccccc1,-2.3%,-4,-9,-11%,nt,nt,-11%
COc1ccc(/C(C)=N/Nc2ccc(F)cc2F)c(O)c1,1.0%,14,?,-5%,7%,-0.7,4%[15.4 µM]
O=C(c1ccc(Cl)cc1[N+](=O)[O-])N(Cc1ccccc1)Cc1ccccc1,nt,nt,-3,nt,5%,-2.0,nt
CC(Sc1ccccc1)C(=O)N/N=C/c1cccnc1 (stereo not given),-0.6%,-1,-1,-23%,9%,5.9,34%[15.4 µM]
CC(C)Cn1c(-c2csc3ccccc23)n[nH]c1=S,-5.3%,-2,-11,-11%,-18%,3.1,-40%
CC1CCCC(NC(=O)c2ccc3c(SCC(=O)O)c4c(nc3c2)CCC4)C1C (stereo not given),-2.2%,7,18,5%,15%,0.4,?
CCN(CC)S(=O)(=O)c1cc(NC(=O)NCCCl)ccc1C,nt,-13,-6,10%,2%,4.0,6%[15.4 µM]

# Bioassay records deposited in PubChem by National Center for Advancing Translational Sciences (NCATS).
